# HIV Env fusion: inhibitors of HIV-1 Env-driven cell-cell fusion, primary screen, HeLa-JRFL effector, CEM21 target cells, luciferase; actives 1.1% (n = 360,000); inhibition, % at 12.3 µM;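 active means mean replicate inhibition score of at least 50 and every replicate individually at or above 50; inconclusive means only one of the two criteria met; inactive means mean below 50 and not all replicates reaching 50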;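 further: 0% = plate neutral controls and 100% = maraviroc near 300 nM; one replicate is shown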
# eIF4H inh: human eIF4H binding inhibitors, primary screen, translation initiation inhibitor project, biochemical, uHTS, fluorescence polarization; Eukaryotic translation initiation factor 4H (Homo sapiens), Q15056; eIF4H fluorescence polarization binding assay; inhibition, % at 35 µM; actives 0.94% (n = 290,000); AID 2012, 2009;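 active means 50% or more with normal probe brightness, or confirmed in later tests; inconclusive means above 50% with abnormal brightness, or retests that disagree; inactive means below 50% or failed in later tests; about a fifth of its hits are not listed in these tables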;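 further: calls also rest on retests at 20 µM and on dose response follow-up; 0% = protein and probe with vehicle and 100% = probe without protein; strong numbers were not always called active; many hits fall short of the cut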
# CSC inhib: cancer stem cell viability inhibitors, primary screen, luminescence; AID 2717, 2010; inhibition, % at 7.5 µM; actives 1.1% (n = 300,000); cancer stem cell-like cells viability;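 active means mean at 75% or more and at least half the replicates too; inconclusive means mean and replicates disagree; tested in HMLE shEcad cells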;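 further: 0% = median of negative and 100% = median of positive control wells; the first replicate is given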
# MT1-MMP act inh: blockers of MT1-MMP proenzyme processing, primary screen, HT1080 RFP-PRO-GFP cells, GFP/RFP fluorescence | GFP/RFP ratio fluorescence, overnight; percent of plate control window, DMSO zero | GFP/RFP ratio change, % at 20 µM | actives 0.061% (n = 360,000) | AID 651647, 2012;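 active means GFP/RFP ratio change of at least 30% with cell ATP level not reduced by more than half and red fluorescence within 50% of control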; further: strong numbers were not always called active
#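 Assay system: RFP-PRO-GFP reporter HT1080 cells; read-out basis: GFP/RFP fluorescence ratio; benchmarks: DMSO wells and RFP-L50D-GFP cells; doses: 20 µM single dose, 1% DMSO; schedule: overnight cell settling, then overnight compound exposure, 37 °C, 5% CO2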
# Yeast UUG start: modulators of yeast start codon fidelity, primary screen, whole organism, S. cerevisiae, single point, plate reader. S. cerevisiae UUG-firefly luciferase reporter, luminescence/redox ratio. activity score, % at 18.7 µM. actives 0.13% (n = 350,000). AID 602363, 2012;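 active means replicate mean at a twofold rise or more, about +100% in these data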;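 further: firefly luciferase made from a UUG start codon reports start codon fidelity; reporter light over untreated wells divided by growth signal over untreated wells; some hits fall short of that in this replicate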
# PABP FP inh: PABP poly(A) RNA binding inhibitors, primary screen, biochemical, fluorescence polarization, uHTS | inhibition, % at 35 µM | actives 1% (n = 290,000);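 active means 50% or more with normal probe brightness, or confirmed in later tests; inconclusive means above 50% with abnormal brightness, or retests that disagree; inactive means below 50% or failed in later tests; about a fifth of its hits are not listed in these tables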;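 further: calls also rest on retests at 20 µM and on dose response follow-up; controls were probe without protein and protein plus probe with vehicle; some compounds called inactive have numbers as strong as hits; many hits fall short of the cut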
# Target sequence (P11940 whole entry, looked up): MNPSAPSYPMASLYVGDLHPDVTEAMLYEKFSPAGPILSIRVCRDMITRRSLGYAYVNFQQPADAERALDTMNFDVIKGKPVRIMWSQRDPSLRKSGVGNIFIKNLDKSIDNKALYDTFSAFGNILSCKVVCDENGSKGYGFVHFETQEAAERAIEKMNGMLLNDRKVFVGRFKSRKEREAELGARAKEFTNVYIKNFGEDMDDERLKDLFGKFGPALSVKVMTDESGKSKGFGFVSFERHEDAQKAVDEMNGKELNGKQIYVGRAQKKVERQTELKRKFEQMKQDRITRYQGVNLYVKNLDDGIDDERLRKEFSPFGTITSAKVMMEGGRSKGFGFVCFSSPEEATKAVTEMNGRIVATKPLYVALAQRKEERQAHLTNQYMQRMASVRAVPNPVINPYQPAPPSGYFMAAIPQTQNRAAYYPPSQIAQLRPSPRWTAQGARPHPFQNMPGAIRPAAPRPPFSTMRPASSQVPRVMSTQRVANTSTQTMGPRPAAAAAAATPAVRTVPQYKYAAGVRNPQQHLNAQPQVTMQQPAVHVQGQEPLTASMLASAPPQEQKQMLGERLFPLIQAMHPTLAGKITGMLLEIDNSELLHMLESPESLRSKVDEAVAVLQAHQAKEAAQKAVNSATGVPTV
# Rce1 inhib: yeast Rce1p protease inhibitors, primary screen, biochemical, fluorescence, cell-free homogeneous | yeast membranes, quenched prenylated peptide cleavage fluorescence | actives 0.27% (n = 290,000) | calls only | CAAX prenyl protease 2 (Saccharomyces cerevisiae (strain ATCC 204508 / S288c)), Q03530 | AID 2563, 2010;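 active means fall in fluorescence gain of 50% or more versus controls, with final raw signal at or below 3038400; inconclusive means same 50% fall but final raw signal above 3038400; inactive means fall in fluorescence gain under 50%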;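 further: plate controls were neutral control wells for no effect and wells lacking membranes for full effect; tested at 10 µM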
# Target sequence (Q03530 whole entry, looked up): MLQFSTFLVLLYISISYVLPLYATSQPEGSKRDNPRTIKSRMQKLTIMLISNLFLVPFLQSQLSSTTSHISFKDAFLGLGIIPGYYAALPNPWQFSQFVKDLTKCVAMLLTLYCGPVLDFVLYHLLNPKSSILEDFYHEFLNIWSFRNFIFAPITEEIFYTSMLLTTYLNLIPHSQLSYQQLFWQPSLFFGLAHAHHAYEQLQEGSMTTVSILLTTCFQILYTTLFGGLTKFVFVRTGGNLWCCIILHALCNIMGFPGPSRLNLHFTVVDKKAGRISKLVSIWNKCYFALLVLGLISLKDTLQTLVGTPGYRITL
# eIF4H inh retest: second read-out of eIF4H inh, no call of its own (marks repeat the call); inhibition, %; compound at 20 µM; confirmation average;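 mean of two retest wells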
# PABP FP inh retest: further read-out of PABP FP inh, marked with its call; inhibition, %; compound at 20 µM; confirmation repeats;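 mean of two retest wells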
# MT1-MMP act inh RFP: also measured in MT1-MMP act inh; calls as there; RFP signal change, %; measured here: RFP expression control read;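 0 = vehicle wells; hits needed this value within 50% of zero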
# * hit, by the source's call; i = inactive; ? = inconclusive; nt = no result given; & = joins results of further samples; [ ] = remark or other dose.
SMILES,HIV Env fusion,eIF4H inh,CSC inhib,MT1-MMP act inh,MT1-MMP act inh RFP,Yeast UUG start,PABP FP inh,Rce1 inhib,others
CC(C)Sc1nc2ccc(N3C(=O)C4CCCCC4C3=O)cc2s1 (configuration not stated),-18,-5,0,1,1,nt,-12,i,
CCSc1nnc(Cn2c(=O)sc3ccccc32)n1C,11,-4,4,-6,-2,-17,0,i,
COc1ccc(NC(=O)Nc2ccc3nc([C@@H]4O[C@H](CO)[C@@H](O)[C@H](O)[C@H]4O)[nH]c3c2)cc1OC1CCCC1,-1,nt,nt,8,8,-22,nt,nt,
CC(C)C(C)NC(=O)COc1ccc(OCc2ccccc2)cc1 (configuration not stated),12,-12,14,2,1,1,8,i,
C[C@H](CO)N1C[C@H](C)[C@@H](CN(C)S(=O)(=O)c2ccccc2)Oc2c(NC(=O)C3CC3)cccc2C1=O,-6[16.7 µM],nt,nt,1,4,4&6,nt,nt,
CCOC(=O)N1CCN(Cc2nc(Cc3cccc(C(F)(F)F)c3)no2)CC1,-3,0,-1,-6,-4,nt,-8,i,
Cc1ccc(C2=C(c3ccc([N+](=O)[O-])cc3)C(=O)OC2)cc1C,7,-1,6,-6,-5,nt,11,i,
COc1ccc(S(=O)(=O)c2c(O)c3ccc(C(=O)Nc4ccc(F)cc4F)cc3[nH]c2=O)cc1,?,-4,-8,4,6,-14,48,i,
O=C(NCc1ccc(Cl)cc1)c1ccc(NC(=O)C2CCCO2)cc1 (configuration not stated),-19,-11,1,4,3,-6,-9,nt,
O=C(C1CCCCN1S(=O)(=O)c1ccccc1)N1CCCCC1 (configuration not stated),14,17,nt,-3,-2,5,5,i,
O=C(/C=C/c1cccs1)N1CCC2(CC1)Oc1ccc(F)cc1C(=O)C21CC(c2ccc(Cl)cc2)=NO1 (configuration not stated),19,-3,1,12,5,-23,7,i,
COC(=O)C1CCN(Cc2ccc(OCCCN3CCN(c4ccc([N+](=O)[O-])cc4)CC3)cc2)CC1,12,-3,26,6,-14,nt,6,i,
O=C(NCc1ccccc1)NC(O)C(Cl)(Cl)Cl (configuration not stated),9,-7,-15,2,5,nt,-6,i,
COc1ccc(CC(N)c2csc(NC(=O)c3cccc(OC(F)(F)F)c3)n2)cc1 (configuration not stated),-19,nt,nt,-1,1,-14,nt,nt,
COc1ccc(N(CC(=O)Nc2cccc(C)c2)S(=O)(=O)c2c(C)noc2C)cc1,9,7,-8,1,1,-3,-5,i,
COCCOC(=O)c1c(NC(=O)CSc2cccc[n+]2[O-])sc(C(N)=O)c1C,-17,7,5,-2,-2,nt,0,i,
CCCC/C(O)=N\S(=O)(=O)c1ccc(N=NN(C)C)cc1,0,5,-15,3,11,3,-7,i,
COCCCn1c(=O)c2sccc2n2c(CCCC(=O)N(C)Cc3ccco3)nnc12,-1,2,-4,-5,-1,-9,2,i,
Cc1ccc(CSc2cc(C)[nH]c(=O)n2)cc1,-9,13,-9,-7,-4,2,-4,i,
COc1ccccc1NC(=O)C1CCCN1C(=O)NC1CCCCC1 (configuration not stated),0,-12,-19,0,4,-9,-4,nt,
CNS(=O)(=O)c1ccc(C(C)(C)C)cc1,22,-7,-13,-5,0,-4,3,i,
Cc1ccc2sc(N3CCN(C(=O)c4ccc([N+](=O)[O-])o4)CC3)nc2c1C,-20,nt,7,1,-4,-2,nt,i,
CCC(CC)C(=O)N(C)c1c(C)nc2c(OCCOc3ccc(F)cc3)cccn12,-11,nt,nt,4,-6,-26,nt,nt,
CNC(=S)NCCc1ccc(OC)cc1,-4,2,8,2,0,nt,92*,i,eIF4H inh retest=34;PABP FP inh retest=68*
Fc1cccc(CN2CCN3CCCC3C2C2CCCCC2)c1 (configuration not stated),nt,3,-2,-2,-2,-6,4,i,

# Next part; it opens with the 4 that closed the last part.
SMILES,HIV Env fusion,eIF4H inh,CSC inhib,MT1-MMP act inh,MT1-MMP act inh RFP,Yeast UUG start,PABP FP inh,Rce1 inhib,others
Cc1ccc2sc(N3CCN(C(=O)c4ccc([N+](=O)[O-])o4)CC3)nc2c1C,-20,nt,7,1,-4,-2,nt,i,
CCC(CC)C(=O)N(C)c1c(C)nc2c(OCCOc3ccc(F)cc3)cccn12,-11,nt,nt,4,-6,-26,nt,nt,
CNC(=S)NCCc1ccc(OC)cc1,-4,2,8,2,0,nt,92*,i,eIF4H inh retest=34;PABP FP inh retest=68*
Fc1cccc(CN2CCN3CCCC3C2C2CCCCC2)c1 (configuration not stated),nt,3,-2,-2,-2,-6,4,i,
O=C(CC1SC(N2CCCC2)=NC1=O)Nc1ccc(C(=O)Nc2ccccc2)cc1 (configuration not stated),-20,nt,-15,3,1,2,nt,i,
O=C(O)c1cccc(N/N=C/c2cccnc2)c1,33,12,nt,-2,4,nt,-1,i,
CCC(C)(C)NC(=O)CN(C(=O)CCC(=O)Nc1nccs1)c1ccc2c(c1)OCCO2,-13,7,-1,-4,-3,-6,-4,nt,
CCCCNC(=O)Cn1c(=O)n(C)c2ccccc21,-12,-15,-5,2,1,-7,-22,i,
CCOC(=O)C1=C(C)Nc2sc(C(=O)c3ccc(Br)cc3)c(N)c2C1c1ccc(C(=O)OC)cc1 (configuration not stated),nt,-16,7,-24,-11,nt,-2,i,
CNC(=O)CN(c1cc(C)ccc1OC)S(=O)(=O)c1ccc(C)cc1,-31,5,-11,2,-2,-11,-8,i,
COc1cccc(C(O)c2cnc(C(C)C)n2C)c1OC (configuration not stated),nt,-2,-6,6,6,-16,-1,nt,
COc1cc(/C=C/C(=O)O)cc(S(=O)(=O)Nc2ccc3cn[nH]c3c2)c1OC,-6,nt,-9,1,2,5,nt,nt,
COc1ccc(CCNC(=O)C(=O)NCC2OCCN2S(=O)(=O)c2ccc3c(c2)OCCO3)cc1OC (configuration not stated),9,-3,0,1,-9,8,2,i,
CCOC(=O)c1ccc(CNC(=O)C2CCC(=O)N(CCc3ccccc3)C2)o1 (configuration not stated),-10,-6,-8,-3,2,-9,-5,i,
CCOC(=O)c1ccccc1NC(=O)c1cccc([N+](=O)[O-])c1,-14,-2,-10,2,-2,nt,12,i,
COCCCn1c(=S)[nH]c2sc3c(c2c1=O)CCCC3,-9,5,11,3,3,-12,5,i,
Cc1ccc(S(=O)(=O)NNC(=O)C2CCCCC2)cc1,-2,-7,-13,2,3,-17,2,i,
CN(c1ccc(C(=O)Nc2ccccc2C(=O)N2CCOCC2)cc1)S(C)(=O)=O,nt,1,-5,-8,3,-17,2,i,
CCN(CC)c1ccc(/C=N/O)cc1,4,-1,-18,-5,-3,nt,28,i,
Cc1ccc(NC(=O)[C@H](Cc2ccccc2)NC(=O)CC[C@H]2O[C@@H](n3ccc(=O)[nH]c3=O)[C@H](O)[C@@H]2O)cc1C,3,nt,nt,1,6,15,nt,nt,
COc1ccc(CCC(=O)Nc2ccc(C)c([N+](=O)[O-])c2)cc1,13,1,nt,7,6,nt,-4,i,
Cc1ccc(O)c(C(=O)CC(=O)c2ccccc2Cl)c1,21,-1,6,-6,-5,nt,7,i,
COc1ccccc1C(=O)NCCC(=O)NN1C(=O)NC2(CCCCC2)C1=O,-3,nt,-1,-2,3,-11,nt,i,
CC(=O)c1n[nH]nc1NC(=O)c1ccccc1,1,-1,9,1,2,nt,4,i,
Cc1onc(-c2ccccc2)c1CNS(=O)(=O)c1ccccc1,15,0,1,0,-1,5,1,i,
O=C(CSc1nc2[nH]ncc2c(=O)[nH]1)c1ccc(Cl)cc1,-45,-12,-12,nt,nt,nt,5,i,
CC12CC3(C)CC(C)(C1)CC(C(=O)NCCc1ccc(S(N)(=O)=O)cc1)(C2)C3,44,5,-3,-2,0,-23,-4,i,
O=C1CCc2cc(S(=O)(=O)N3CCC(C(=O)NCc4ccccc4Cl)CC3)ccc2N1,-7,-11,-8,-1,-1,-6,-5,i,
CCN(CC)c1ccc(/C=N/NC(=S)NC)c(O)c1,-20,8,0,10,7,nt,15,i,
# (cont.)
SMILES,HIV Env fusion,eIF4H inh,CSC inhib,MT1-MMP act inh,MT1-MMP act inh RFP,Yeast UUG start,PABP FP inh,Rce1 inhib,others
COC(=O)c1ccc(NC(=O)Cn2nc(C)cc2C)cc1,-24,0,-3,-2,1,nt,0,i,
COc1ccc(N(Cc2cc3cccc(C)c3[nH]c2=O)S(=O)(=O)c2ccc(OC)cc2)cc1,13,-1,27,-5,-5,-15,4,i,
Cc1ccc(S(=O)(=O)CCc2nnc(NC(=O)c3ccco3)s2)cc1,nt,-6,0,-1,-2,nt,-6,i,
CCc1ccc(S(=O)(=O)NCc2csc(-c3ccccc3)n2)s1,nt,-12,-3,0,0,1,-8,i,
O=C(NC1CCCCCCC1)c1ccc2c(c1)N(Cc1ccc(F)cc1)C(=O)CS2=O (configuration not stated),-20,-10,35,-8,-1,-10,2,i,
COC(=O)[C@]1(Cc2ccccc2)N[C@H](CN(C)S(=O)(=O)c2ccc(C(C)(C)C)cc2)[C@@H]2C(=O)N(Cc3ccccc3)C(=O)[C@@H]21,20,nt,nt,1,0,-30,nt,nt,
O=C(O)c1ccc(Oc2c(C(F)(F)F)oc3cc(O)ccc3c2=O)cc1,3,2,-7,-1,-1,2,-4,i,
CCn1cc(C(=O)N2CCCC(N3CCN(c4cccc(C(F)(F)F)c4)CC3)C2)cn1 (configuration not stated),13,0,0,-3,1,2,6,i,
C#CCCCc1nc2ccccc2c(=O)n1N,12,-2,-8,6,2,nt,-2,i,
O=C1[C@@H]2[C@@H]3C[C@@H]([C@H]4ON=C(c5ccc(Cl)cc5Cl)[C@@H]34)[C@@H]2C(=O)N1C1CCCCC1,13,7,-15,2,0,nt,7,i,
COc1ccc(CCNC(=O)CCCn2c(=O)[nH]c3cc(OC)c(OC)cc3c2=O)cc1OC,-50,-2,0,2,1,3,0,i,
Cc1ccc(S(=O)(=O)N(CC(=O)N2CCC(C)CC2)c2cccc(C)c2)cc1,20,8,-13,-5,-4,-3,7,i,
Cc1ccc(C(=O)NNC(=O)c2ccncc2)cc1S(=O)(=O)N1CCCCC1,-22,nt,-9,4,0,-9,nt,i,
COc1ccc(Cc2noc(-c3ccccc3)n2)cc1OC,39,5,-2,2,-6,nt,-4,i,
Cc1csc(SCC(=O)NC(=O)C2CCCCC2)n1,5,-3,0,-3,2,nt,0,i,
Cc1ccc(CNC(=O)CS(=O)CC(=O)O)cc1 (configuration not stated),-279,4,-6,4,4,3,1,i,
Cc1ccc(N2N=C(c3ccc(Br)cc3)CCC2=O)cc1,nt,-4,13,6,5,nt,2,i,
CCc1ccc(C(=O)NNC(=O)c2ccc(OCC(=O)N3CCOCC3)c(OC)c2)cc1,13,nt,-3,-1,0,-13,nt,nt,
CC1(C)CC(Nc2ccc(C(F)(F)F)cc2[N+](=O)[O-])CC(C)(C)N1,6,1,nt,1,-1,nt,1,nt,
NS(=O)(=O)c1cccc(NC(=O)COC(=O)CCC(=O)c2cccs2)c1,-3,nt,-16,2,2,-14,nt,nt,
O=C(Cc1ccc(-n2cccc2)cc1)NCc1cccs1,nt,13,53,1,-14,nt,14,i,

# Assay outcomes from PubChem BioAssay.
